Screening data as filed in PubChem BioAssay.
RE007 growth inh: less growth of the S. pombe RE007 Vpr strain; Potency, µM (highest dose often 92.2 µM), for inactives: at the top dose activity change, negative = less growth; S. pombe RE007 Vpr strain, BacTiter-Glo ATP luminescence, 24 h; control for the full effect not named in the record; actives 0.21% (n = 360,000); AID 651644; active = well fitted falling curve with a large enough effect; inconclusive = small, poorly fitted or top-dose-only effect; inactive = no such curve, though single readings can be large or run the other way;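 further: nearly all actives have a fitted effect of over 50% in size; the assay follows cell death caused by Vpr and the record does not say whether a fall means rescue or toxicity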
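Fission yeast RE007 carrying one integrated HIV-1 vpr copy, seeded at OD 0.01 in PMG+AL medium with 23 nL pinned compound. Grown 24 h at 30 degrees; viability read by BacTiter-Glo luminescence after 5 min.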
StopGo reporter: FMDV 2A StopGo reporter, luciferase signal; actives 1.2% (n = 410,000); human cells with a luciferase reporter of 2A StopGo recoding; control for the full effect not named in the record; Potency, µM (highest dose often 57.9 µM), for inactives: at the highest dose signal change, negative = less light; AID 1159524; active = well fitted falling curve with a large enough effect; inconclusive = small, poorly fitted or top-dose-only effect; inactive = no such curve, though single readings can be large or run the other way; tested in HEK293T cells; further: nearly all actives have a fitted effect of over 45% in size; luciferase light after 4 h
* = called active by the depositor; u = inconclusive; [ ] = remark or other dose. On the % scale 0 is the no-effect control and ±100 the full control effect; potency means the concentration at half of the fitted maximal effect. Some of the compounds tested; count on the stated rates, not on these rows.

Each structure is followed by: RE007 growth inh	StopGo reporter
CO[C@H]1C=CCCC=CC(=O)O[C@H]([C@H](C)C(=O)CCCC2CC(=O)NC(=O)C2)C(C)=C[C@@H](C)[C@@H]1O
  1%	-3%
OCCN1CCN(c2cc(-c3ccc(CO)cc3)nc3ccnn23)CC1
  5%	-10%
Cc1ccc(S(=O)(=O)Nc2ccc(Nc3nccn4c(-c5ccc6ccccc6c5)cnc34)cc2)cc1
  17%	14%
Cc1cn([C@H]2C[C@H](O)[C@@H](/C=C/C(=O)NCCN3CCCCC3)O2)c(=O)[nH]c1=O
  10%	-21%
COC(=O)c1ccc(CNC(=O)CN2C(=O)NC(Cc3ccccc3)(c3ccccc3)C2=O)cc1 (configuration not stated)
  19%	-15%
CCCNC(=O)C1(C)CCCN(C(=O)c2sccc2C)C1 (configuration not stated)
  -3%	-14%
CN1CCN(c2ccc(CNC(=O)C3Cc4c(-c5ccc(Cl)cc5)ccnc4O3)cc2)CC1 (configuration not stated)
  -7%	u
Cc1ccc(S(=O)(=O)N2CCN(C(=O)COC(=O)/C=C/c3cccc(Cl)c3)CC2)c(C)c1
  -9%	u
C[C@@H]1CN([C@H](C)CO)C(=O)CCCn2nncc2CO[C@@H]1CN(C)C(=O)Nc1ccc(N2CCN(C)CC2)cc1
  -13%	6%
CC1(C(=O)Nc2ccccc2)Cc2c(-c3cccc(C(F)(F)F)c3)ccnc2O1 (configuration not stated)
  3%[18.4 µM]	-13%
O=S1(=O)CCOC[C@H](Cc2ccccc2)N1Cc1ccc(Cl)cc1
  -6%	-28%
COc1ccc(C(C)=NOC(=O)c2c(-c3ccccc3Cl)noc2C)cc1CN1CCOCC1
  16%	u
COc1cccc(N2[C@@H](CC(=O)O)c3ccc(/C=C/C(=O)O)cc3S2(=O)=O)c1
  1%	-2%
O=C(NC1CCOC1=O)OCc1ccccc1 (configuration not stated)
  -8%	0%
CC1(C(=O)NCC(F)(F)F)CCN1C(=O)Cc1ccc(-c2ccccc2)cc1 (configuration not stated)
  1%[18.4 µM]	u
COc1ccc2cc3[n+](cc2c1O)CCc1cc2c(cc1-3)OCO2
  -19%	10µM*
CCOC(=O)N1CCN(C(=O)C[C@@H]2C[C@@]3(C(=O)OCC)CCCC=C3N(Cc3ccc(Cl)cc3Cl)C2=O)CC1
  40%	0%
CN(Cc1ccccc1)C(=O)c1ccc2nc([C@H]3C[C@H](O)[C@@H](CO)O3)[nH]c2c1
  5%	6%
CCC(C(=O)NCc1ccccc1)n1c(Cc2cc(F)cc(F)c2)nc2ccccc21 (configuration not stated)
  3%	-17%
CC1(C(=O)NCCc2ccccc2)Cc2c(-c3ccccc3)ccnc2O1 (configuration not stated)
  7%	-19%
CC(C)(C)Cc1c(-c2cccc(Br)c2)nc2ccc(Br)cn12
  -22%	-11%
O=[N+]([O-])c1ncc(Br)cc1Nc1ccccc1
  -26%	-13%
COc1ccc(S(=O)(=O)N2CCCCC2c2cc(C(=O)N3CCOCC3)no2)cc1 (configuration not stated)
  7%	-19%
CSCCC(c1nnnn1Cc1ccccc1)N1CCC2(CC1)C(=O)NCN2c1ccccc1 (configuration not stated)
  -18%	-17%
c1ccc(-c2nnc(C3CC(c4ccncc4)=NO3)o2)cc1 (configuration not stated)
  12%	2%
O=C(NC1CCCC1)c1nc(-c2ccco2)oc1-c1ccccc1
  -11%	-7%
OC(CC(O)c1ccccc1)c1ccccc1 (configuration not stated)
  13%	-17%
O=C(O)c1ccc(NC(=O)C2CCN(S(=O)(=O)c3ccc4c(c3)OCCO4)CC2)cc1
  -4%	-20%
Cc1ccc(S(=O)(=O)N2CCN(C(=O)C3CCN(c4ncnc5sc(C)c(C)c45)CC3)CC2)c(C)c1
  2%	20µM*
COCCCN1C(=O)C(CC(=O)NCc2ccco2)CC(C(=O)N(C)C)=C1C (configuration not stated)
  -4%	-9%
Cc1ccc(C(=O)NC(C)C(c2cccs2)N2CCOCC2)cc1C (configuration not stated)
  -1%	-19%
COc1cccc(C(NC(C)=O)c2nc(-c3cnc4ccccc4c3)cs2)c1 (configuration not stated)
  -8%[18.4 µM]	-4%
COc1ccccc1-c1ccc2c(c1)C(C)(Cc1cccc(F)c1)C(=O)N2 (configuration not stated)
  7%[18.4 µM]	-27%
C[C@@H]1CN([C@@H](C)CO)C(=O)CCCn2nncc2CO[C@@H]1CN(C)S(=O)(=O)c1cccc(F)c1
  -17%	-19%
COc1ccc(CN2C(=O)C(CC(=O)NCc3cccc4ccccc34)CC(C(=O)N(C)C)=C2C)cc1 (configuration not stated)
  -17%	-5%
C/C=C1\COC(C(=O)NCCCN2CCCC2=O)(C(F)(F)F)C=C1C=C(C)C (configuration not stated)
  17%	-10%
C[C@@H]1CN([C@H](C)CO)C(=O)c2cc(NC(=O)Nc3ccc(F)cc3)ccc2O[C@@H](C)CCCCO[C@H]1CN(C)S(=O)(=O)c1cccs1
  -29%	u
CC(Sc1nc(-c2ccccc2)c(-c2ccccc2)[nH]1)C(=O)NCC1CCCO1 (configuration not stated)
  1%	-18%
CC(=O)c1cccc(NC(=O)C2CCCN2S(=O)(=O)c2ccccc2C(F)(F)F)c1 (configuration not stated)
  7%	-12%
CCCCCCN1CCN(C2CN(Cc3cn(Cc4ccc(C)cc4)nn3)S(=O)(=O)C2)CC1 (configuration not stated)
  -14%	-22%
C=CCNc1ncnc2c1ncn2[C@H]1CN(Cc2ccccc2)C[C@@H](COC(C)=O)O1
  10%	14%
CCC(=O)N(C)C[C@H]1Oc2ncc(C#Cc3cccnc3)cc2C(=O)N([C@@H](C)CO)C[C@@H]1C
  -29%	-21%
C=CCC1(C(=O)N(C)Cc2ccccc2)CCN(C(=O)OC(C)(C)C)CC1
  -14%	-28%
CCN(CC)S(=O)(=O)c1ccc(N2CCOCC2)c(NC(=O)CN2C(=O)NC3(CCCC3)C2=O)c1
  0%	-14%
COC(=O)[C@]12CCCCC=C1N(CCC1=CCCCC1)C(=O)[C@H](CC(=O)N1CCC(c3ccccc3)CC1)C2
  -7%	0%

Some of the entries so far, with tabs.
compound	RE007 growth inh	StopGo reporter
COc1ccccc1-c1ccc2c(c1)C(C)(Cc1cccc(F)c1)C(=O)N2 (configuration not stated)	7%[18.4 µM]	-27%
C[C@@H]1CN([C@@H](C)CO)C(=O)CCCn2nncc2CO[C@@H]1CN(C)S(=O)(=O)c1cccc(F)c1	-17%	-19%
COc1ccc(CN2C(=O)C(CC(=O)NCc3cccc4ccccc34)CC(C(=O)N(C)C)=C2C)cc1 (configuration not stated)	-17%	-5%
C/C=C1\COC(C(=O)NCCCN2CCCC2=O)(C(F)(F)F)C=C1C=C(C)C (configuration not stated)	17%	-10%
C[C@@H]1CN([C@H](C)CO)C(=O)c2cc(NC(=O)Nc3ccc(F)cc3)ccc2O[C@@H](C)CCCCO[C@H]1CN(C)S(=O)(=O)c1cccs1	-29%	u
CC(Sc1nc(-c2ccccc2)c(-c2ccccc2)[nH]1)C(=O)NCC1CCCO1 (configuration not stated)	1%	-18%
CC(=O)c1cccc(NC(=O)C2CCCN2S(=O)(=O)c2ccccc2C(F)(F)F)c1 (configuration not stated)	7%	-12%

More records:
Each structure is followed by: RE007 growth inh	StopGo reporter
COc1ccc(Cl)c(-c2cc(C(=O)NCc3ccco3)[nH]n2)c1
  5%	60%[activator]
CCOC1=C2CN(S(=O)(=O)c3ccc(C)cc3)[C@H](c3ccccc3)C[C@@H]2N(S(=O)(=O)c2ccccc2)[C@H](c2ccccc2)C1
  6%	-14%
CCc1ccc(/C=C2/SC(=S)N(CCCC(=O)Nc3cccc(C(=O)O)c3)C2=O)cc1
  11%	20%
CCc1nc2c(OCc3ccc(Cl)cc3Cl)cccn2c1N(C)C(=O)C(C)C
  0%	32µM*
O=C(Nc1ccc(C(=O)N2CCCC2)cc1)C1CCC1
  3%	16%
N#C/C(=C\c1ccc(O)c(O)c1)C(=O)N1CCc2ccccc21
  -3%[18.4 µM]	22%
CCOC1=C2CN(S(=O)(=O)c3ccc(C)cc3)C(c3ccc(CC)cc3)CC2n2c(=O)n(-c3ccccc3)c(=O)n2C1 (configuration not stated)
  5%	-2%
CCCNC(=O)C1(C)CCCN(C(=O)/C=C/c2ccccc2)C1 (configuration not stated)
  u	-13%
COc1cc(OC)nc(Nc2nc(C(N)Cc3ccccc3)cs2)n1 (configuration not stated)
  -14%[18.4 µM]	0%
COc1ccc(-c2ccc(C(=O)Nc3cccc(C(C)=O)c3)c3occc23)c(C)c1
  3%[18.4 µM]	u
CCCCCCCCCCCCN1[C@@H](CC(=O)OC)c2cc(C(F)(F)F)ccc2S1(=O)=O
  -19%	20%
OC(c1ccccc1)(c1ccccc1)C1CCN(CCCOc2ccc3c(c2)CCCC3)CC1
  -10%	u
COc1cc(CNC(=O)c2cc(-c3ccc(F)cc3C)n[nH]2)cc(OC)c1
  -8%	-14%
CCCCN(C=O)c1c(CC)nc2ccc(C(=O)N3CCN(S(=O)(=O)CC)CC3)cn12
  -2%	-12%
COc1cccc(CNc2nc(NCc3ccccc3OC)nc3ccsc23)c1
  -8%	25µM*
N#Cc1ccc2nc(-c3ccc(CN4CCC(n5c(=O)[nH]c6ccccc65)CC4)cc3)c(-c3ccccc3)nc2c1
  -10%	u
CC(C)C[C@H]1CN(CCCC[C@@H]2CNC(=O)C(=O)N2Cc2ccccc2)C(=O)C(=O)N1Cc1ccccc1
  3%	-5%
COC(=O)[C@]12CCCCC=C1N(Cc1ccc(Cl)cc1Cl)C(=O)[C@H](CC(=O)NCc1cccc3ccccc13)C2
  -4%	-21%
Cc1ccc(SCC(=O)Nc2nncs2)cc1
  22%	15%
CC1(C(=O)NCc2ccco2)Cc2c(-c3ccc(C(N)=O)cc3)ccnc2O1 (configuration not stated)
  3%[18.4 µM]	-2%
C[C@H](NC(=O)c1ncn2c1c(=O)[nH]c1ccc(Br)cc12)c1ccccc1
  -16%	u
C=CCOc1ccc(Cl)cc1-c1noc(-c2csc([C@H]3C[C@H](O)[C@@H](CO)O3)n2)n1
  10%	9%
CC(C)(C)OC(=O)NCCc1nc(NC(=O)OCc2ccccc2)sc1C(=O)O
  u	3%
CC(C)C[C@H]1CNC(=S)N1CC1CCCN1C[C@H](Cc1ccc(O)cc1)N1C[C@H](Cc2ccccc2)N(CC2CCCCCC2)C1=S (some centres not stated)
  2%	-8%
CC1(C(=O)NC2CCCCCC2)CCN1C(=O)C1(c2ccccc2)CC1 (configuration not stated)
  7%	-14%
O=C(NCc1nc2ccccc2[nH]1)C1=C[C@H](c2coc3ccccc3c2=O)C[C@H](OCCCCO)O1
  -23%	u
O=C1c2ccccc2C(c2nnnn2-c2ccc3c(c2)OCCO3)N1Cc1cccs1 (configuration not stated)
  18%	2%
O=C(c1cccc(Br)c1)c1nc2ccccc2[nH]c1=O
  4%	0%
CC(=O)CC1c2cc(F)ccc2C=C(c2ccsc2)N1c1ccc(C#Cc2cncn2C)cc1 (configuration not stated)
  -11%	-29%
CCc1cnc(Nc2nc(C(N)c3ccccc3Cl)cs2)nc1 (configuration not stated)
  -13%[18.4 µM]	-18%
CC(C)C[C@@H](CN1CCC[C@@H]1CN1C(=S)NC[C@@H]1Cc1ccc(O)cc1)N1C[C@H](Cc2ccc(O)cc2)N(CC2CCCCC2)C1=S
  19%	-17%
COc1ccccc1C(=O)NCCC(=O)N1CCCC(C(F)(F)F)C1 (configuration not stated)
  -2%	-7%
O=C(NCc1ccccc1)C(C1CC1)n1c(Cc2cc(F)cc(F)c2)nc2ccccc21 (configuration not stated)
  -15%	-3%
CCc1cccc(NC(=O)c2cc(S(=O)(=O)N3CCCCC3)ccc2N2CCOCC2)c1
  -10%	-15%
COc1ccc(CNC(=O)C2(C)Cc3c(-c4ccc(N(C)C)cc4)ccnc3O2)cc1OC (configuration not stated)
  13%	0%
C=CCCC(=O)N1C[C@H]2CON(C)[C@H]2C[C@H]1c1ccc(Br)cc1
  -18%	-17%
COC(C[C@H]1O[C@@H]1C(=O)COCc1ccccc1)OC
  9%	2%
CCc1nc2ccc(C(=O)N3CCN(C(=O)c4ccco4)CC3)cn2c1N(C)CCC(C)C
  1%[18.4 µM]	-23%
Cc1c(C(=O)NCc2ccccc2C(F)(F)F)sc(=O)n1Cc1ccc2c(c1)OCO2
  -9%[18.4 µM]	-4%
CCCNC(=O)C1(C)CCN(C(=O)c2ccc(F)c(Cl)c2)C1 (configuration not stated)
  7%	-18%
COc1ccc(CN2C(=O)CSCC2(C)C(=O)NC(C)C)cc1 (configuration not stated)
  -2%	-14%
O=C(NCC1CCCCC1)c1ccc2nc([C@@H]3O[C@H](CO)[C@@H](O)[C@H]3O)[nH]c2c1
  6%	-10%
CCOC(=O)[C@]12CCCC=C1N(CCC1=CCCCC1)C(=O)[C@H](CC(=O)NCCCN1CCCC1=O)C2
  6%	-11%
CC(C)(C)S(=O)(=O)N1Cc2cc(CO)cc(CCO)c2[C@@H]1CCO
  -10%	-17%
C[C@H](CO)N1C[C@H](C)[C@H](CN(C)C(=O)Cc2ccccc2)OCc2cnnn2CCCC1=O
  -9%	-21%
COc1ccc(Cl)cc1CC1(C)C(=O)Nc2ccc(S(=O)(=O)NC3CCCCC3)cc21 (configuration not stated)
  -7%	34%[activator]
O=C(COc1ccc(Br)cc1)OCC(=O)c1ccc[nH]1
  5%	-4%
